Bioassay records deposited in PubChem by ICCB-Longwood Screening Facility, Harvard Medical School.
Polio RdRp inh = poliovirus RNA polymerase inhibition; P03300; poliovirus polymerase elongation, fluorescence polarization; stronger effect = lower value; % elongation, % (compound at 16.7 µg/mL); 150,000 compounds, 0.66% hits; AID 588519; in the data active means % elongation below about 90%; further: some results filed as inactive read as strong as hits
Target sequence (P03300 1749-2209 limits assumed): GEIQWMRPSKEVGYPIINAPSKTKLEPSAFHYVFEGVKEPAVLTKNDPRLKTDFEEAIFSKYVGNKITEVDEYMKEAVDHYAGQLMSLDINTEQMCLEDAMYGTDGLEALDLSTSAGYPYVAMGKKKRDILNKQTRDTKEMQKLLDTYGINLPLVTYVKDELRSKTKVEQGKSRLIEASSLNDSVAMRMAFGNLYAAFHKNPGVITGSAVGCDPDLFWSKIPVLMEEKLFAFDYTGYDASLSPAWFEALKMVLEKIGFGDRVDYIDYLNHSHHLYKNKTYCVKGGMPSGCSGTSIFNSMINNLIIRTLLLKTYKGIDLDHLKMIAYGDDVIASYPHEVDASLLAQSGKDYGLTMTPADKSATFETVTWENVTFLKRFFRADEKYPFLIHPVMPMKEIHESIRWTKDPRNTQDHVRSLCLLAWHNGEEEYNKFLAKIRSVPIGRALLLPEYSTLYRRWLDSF
Polio RdRp inh intensity = recorded beside Polio RdRp inh, whose call it bears; % elongation; measured here: total intensity read-out; formula for this scale not given here;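 total fluorescence in place of polarization; lower means less elongation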
The depositor's hits bear a star. A portion of the library; the hit share may differ from the screen's.

compound	Polio RdRp inh	Polio RdRp inh intensity
CCN(c1ccc(C)cc1)S(=O)(=O)c1nnc(NC(=O)C2CCCCC2)s1	111	100
CCOC(=O)CC(NC(=O)CCc1c(C)nc2c(-c3ccccc3)c(C)nn2c1C)c1ccc(OC(C)C)cc1 (centres undefined)	107	107
CCN(CC)c1ccc(-c2nc(-c3ccco3)no2)cc1[N+](=O)[O-]	105	102
COc1ccc(C)cc1NC(=O)N1CCC(CN2CCOCC2)CC1	106	109
COc1ccc(C)cc1NC(=O)CN(c1ccccc1)S(=O)(=O)N(C)C	107	110
Cc1ccccc1OCC(=O)Nc1ccc2oc(-c3ccc(F)cc3)nc2c1	104	108
Cc1cccc(C(=O)Nc2ccc(N3CCC(N4CCCCC4)CC3)c(C(=O)O)c2)c1	104	106
Cc1cccn2c(=O)cc(CSc3nnc(NC(=O)C(C)C)s3)nc12	106	99
COCCCNC(=O)c1ccc2c(c1)N(Cc1ccccc1)C(=O)c1ccccc1S2	110	110
CCCCNC(=O)CC1N=C2c3ccccc3N=C(SCC(=O)NCc3ccccc3Cl)N2C1=O (centres undefined)	111	114
Cc1ccc(NC(=O)c2ccc3c(O)c(S(=O)(=O)c4ccc(Cl)cc4)c(=O)[nH]c3c2)cc1	107	97
Cc1ccc(Cl)cc1N1CCN(C2(c3ccccc3)C(=O)c3ccccc3C2=O)CC1	106	105
COc1cccc(C(=O)Nc2ccc(Cl)c(-c3nc4ccccc4[nH]3)c2)c1	114	104
Cn1cnc(S(=O)(=O)N2CCCC(C(=O)Nc3ccc(F)cc3Cl)C2)c1 (centres undefined)	107	114
COc1cccc(NC(=O)C(CCSC)NC(=O)C2CCC(C)CC2)c1 (centres undefined)	107	105
COc1ccccc1NC(=O)CN1C(=O)C2(SCC(=O)N2c2ccc(C)c(C)c2)c2ccccc21 (centres undefined)	106	102
Cc1cccc(NC(=O)CCS(=O)(=O)c2cc(Br)cc3c2N(C(=O)C2CC2)CC3)c1C	106	110
CCOc1ccc(NC(=O)Cc2ccc(-n3c(C)nc4cccnc43)cc2)cc1	112	109
CCCCNC(=O)C1CCCN(S(=O)(=O)CCC)C1 (centres undefined)	108	102
CCOc1cccc(CNCCCSc2nnnn2C)c1	100	105
Cc1cccc(C(=O)Nc2ccccc2SCc2cc(=O)c3cccc(C)c3[nH]2)c1	103	104
Cc1ccc(CNC(=O)c2nc(-c3ccc(Cl)cc3)n3c2CCCCC3)cc1	107	112
CC(C)COc1ccc(C(=O)N(Cc2cccc(F)c2)C2CCS(=O)(=O)C2)cc1 (centres undefined)	109	112
COc1cccc(NS(=O)(=O)c2ccc3[nH]cc(C(=O)NCCc4ccc(C)cc4)c(=O)c3c2)c1	101	96
O=C(c1ccc2c(c1)N(Cc1ccc(Cl)cc1)C(=O)c1ccccc1S2=O)N1CCN(c2ccccc2F)CC1 (centres undefined)	108	110
CCc1nn(CC(=O)NCCCc2ccccc2)c(=O)c2cc3c(OC)cccc3n12	102	109
CCOc1ccc(CCn2c3c(c(=O)[nH]c2=O)C(NC(=O)c2cccc(F)c2)(C(F)(F)F)C(=O)N3)cc1OCC (centres undefined)	101	101
O=C(Nc1noc2ccccc12)c1c(F)cccc1F	123	119
CC(=O)c1ccc(NC(=O)CSc2nnc3ccc(-c4ccc(F)cc4)nn23)cc1	109	112
CCc1ccc(C2CC(=O)Nc3c2c(=O)nc2c(C)cccn32)cc1 (centres undefined)	102	102

As entered above.
Polio RdRp inh intensity, Cc1ccccc1OCC(=O)Nc1ccc2oc(-c3ccc(F)cc3)nc2c1 stands at 108
Polio RdRp inh, CCOc1cccc(CNCCCSc2nnnn2C)c1 stands at 100

Remaining list, next part
compound	Polio RdRp inh	Polio RdRp inh intensity
COCCNC(=O)Cn1c(=O)n(CCCCCC(=O)Nc2ccccc2)c(=O)c2sccc21	108	112
COc1ccc(-c2noc(N3CCC(C(=O)Nc4ccc(F)cc4Cl)CC3)n2)cc1	102	108
CSc1cccc(NC(=O)Cn2c3ncccc3c(=O)n2-c2ccc(C)cc2)c1	113	112
COc1ccc(-c2cn3c(n2)sc2cc(C(=O)NCC(C)c4ccccc4)ccc23)cc1 (centres undefined)	106	101
COc1ccc(Cn2ccc3nc(C)c(C(=O)Nc4ccc(OC)cc4)cc3c2=O)cc1	114	115
COc1ccc(CCNC(=O)CSc2n[nH]c(-c3ccccc3Cl)n2)cc1OC	98	107
COc1ccc(S(=O)(=O)N(CCc2ccccc2)CC(=O)Nc2cc(C)ccc2C)cc1	109	110
COc1ccc(CNC(=O)c2cccc(N3CCCS3(=O)=O)c2)cc1	110	98
COc1ccc(OC)c(CCNC(=O)C(C)n2c(C)c3cnn(-c4ccccc4)c(=O)c3c2C)c1 (centres undefined)	107	109
Cc1ccccc1NC(=O)c1c(C)oc2ccc(O)c(CN3CCCCCC3)c12	103	106
CCN(c1ccc(Cl)cc1)S(=O)(=O)c1nnc(NC(=O)c2ccccc2C)s1	104	108
COc1ccccc1CNC(=O)CSc1nnc(C)c2c(C)n(-c3ccccc3)nc12	104	112
CCOC(=O)c1cc(C)n(CC2CCC(C(=O)Nc3ccc(C)cc3)CC2)c1C (centres undefined)	106	112
Cc1ccc(-n2c(/C=C\c3ccc(F)cc3)nc3ccccc3c2=O)cc1Cl	108	104
CC(=O)Nc1ccccc1-c1nc2ccccc2n(CC(=O)Nc2cccc(C(F)(F)F)c2)c1=O	104	108
CCc1ccc2oc(-c3ccc(NC(=O)c4cc5ccccc5o4)cc3)nc2c1	106	111
CCc1ccc(NC(=O)c2sc3nc(C)cc(C)c3c2NC(=O)c2ccccc2)cc1	108	109
CCN(C(=O)Cn1c(=O)oc2cc(S(=O)(=O)N3CCCCC3)ccc21)c1ccccc1	105	106
CCOC(=O)c1ccccc1NC(=O)c1sc2ccccc2c1Cl	107	111
Cc1ccc(NS(=O)(=O)c2ccc3[nH]c4c(c3c2)CCCCCC4)cc1	110	114
O=C(NCCCN1CCN(c2ccccc2F)CC1)c1nnc(Cc2ccc(Cl)cc2Cl)o1	107	114
CCOC(=O)N1CCc2c(sc(NCc3ccc(N(C)C)cc3)c2C(=O)Nc2ccccc2OCC)C1	112	123
Cc1ccc2c(c1)c1c(c(=O)n(-c3ccccc3C)c(=O)n1Cc1ccccc1F)n2C	114	112
COc1ccc(-c2nsc(NC(=O)c3oc4ccc(Cl)cc4c3C)n2)cc1	103	105
COc1ccc(CN2COc3ccc4c(-c5ccccc5)cc(=O)oc4c3C2)cc1	112	108
CCOc1ccc(C(=O)Nc2ccc(-n3nncc3-c3ccc(OC)cc3)cc2)cc1	103	100
O=C(NCCCN1CCN(c2ccc(F)cc2)CC1)C1COc2ccccc2C1 (centres undefined)	103	102
COc1ccc(NC(=O)C(C)N2Cc3ccccc3C2=O)cc1OC (centres undefined)	110	113
CC(C)CC(NC(=O)C1CCC(C)CC1)C(=O)OCC(=O)c1ccc(Cl)cc1 (centres undefined)	107	100
COc1ccc(NC(=O)CSc2nc3ccccc3nc2Cc2ccc(C)cc2)cc1Cl	104	106

Compounds shown so far with a furan ring, fused or not:
compound	Polio RdRp inh	Polio RdRp inh intensity
CCN(CC)c1ccc(-c2nc(-c3ccco3)no2)cc1[N+](=O)[O-]	105	102
Cc1ccccc1NC(=O)c1c(C)oc2ccc(O)c(CN3CCCCCC3)c12	103	106
CCc1ccc2oc(-c3ccc(NC(=O)c4cc5ccccc5o4)cc3)nc2c1	106	111
COc1ccc(-c2nsc(NC(=O)c3oc4ccc(Cl)cc4c3C)n2)cc1	103	105

The main list resumes, starting 4 compounds before the break.
compound	Polio RdRp inh	Polio RdRp inh intensity
O=C(NCCCN1CCN(c2ccc(F)cc2)CC1)C1COc2ccccc2C1 (centres undefined)	103	102
COc1ccc(NC(=O)C(C)N2Cc3ccccc3C2=O)cc1OC (centres undefined)	110	113
CC(C)CC(NC(=O)C1CCC(C)CC1)C(=O)OCC(=O)c1ccc(Cl)cc1 (centres undefined)	107	100
COc1ccc(NC(=O)CSc2nc3ccccc3nc2Cc2ccc(C)cc2)cc1Cl	104	106
O=S(=O)(c1ccc(-n2cnnn2)cc1)N1CCN(c2cccc(C(F)(F)F)c2)CC1	102	102
Cc1cc(C)cc(NC(=O)Nc2ccc3nc(N4CCN(C)CC4)cc(C)c3c2)c1	98	96
CCOc1ccccc1CNC(=O)C1CCN(S(=O)(=O)c2ccc3c(ccn3C)c2)CC1	108	112
COc1ccc(NC(=O)CN2C(=O)CCc3cc(S(=O)(=O)N4CCOCC4)ccc32)c(OC)c1	102	106
COC(=O)c1cc2oc3ccccc3c2n1Cc1cc(C)ccc1C	110	112
COc1ccc(C(=O)N(Cc2cc(OC)c(OC)c(OC)c2)c2ccccn2)cc1	112	112
COC(=O)c1cc(OC)c(OC)cc1NC(=O)c1ccc2c(c1)CCN2S(C)(=O)=O	101	103
CCCOc1ccc(C2CC(=O)Nc3c2c(=O)n(C)c(=O)n3C)cc1OC (centres undefined)	107	111
CN(C(=O)CCS(=O)(=O)c1cc2c(cc1Cl)NC(=O)CO2)C1CCCCC1	104	111
CCc1cccc(CC)c1NC(=O)CN1C(=O)C(=O)c2ccccc21	103	103
Cc1cc(OC(C)C(=O)Nc2sc3c(c2C(N)=O)CCCC3)ccc1Cl (centres undefined)	104	108
COc1ccccc1N1CCN(c2nc3c(S(=O)(=O)c4ccc(C)c(C)c4)nnn3c3ccc(Cl)cc23)CC1	98	100
COc1ccc(NC(=O)c2cc(S(=O)(=O)N3CCCCCC3)cn2C)c(OC)c1	108	110
CCOc1cc(C2c3c(-c4ccccc4O)n[nH]c3C(=O)N2CCc2ccccc2)ccc1O (centres undefined)	102	107
Cc1cc(C)cc(NC(=O)CCCc2nnc3n(CC(C)C)c(=O)c4sccc4n23)c1	115	117
CCC1CN(C(=O)N2CCC(C(=O)NCc3cccs3)CC2)c2cc(C)ccc2O1 (centres undefined)	100	108
COc1ccc(Cn2ccc3nc(C)c(C(=O)N4CCN(c5ccc(F)cc5)CC4)cc3c2=O)cc1	111	116
CCCN1CCN(CCNC(=O)Nc2cc(Cl)c(OC)cc2OC)CC1	102	104
COc1ccccc1Nc1cc(C(=O)NCc2cccs2)c2ccccc2n1	104	104
COC(=O)COc1ccc(C2C(C(=O)OC)=C(C)NC3=C2C(=O)c2ccccc23)cc1OC (centres undefined)	106	101
CCOc1ccc(N(Cc2cc3cc(C)ccc3[nH]c2=O)C(=O)c2cccc(Cl)c2)cc1	124	122
COc1cccc(C2CC(=O)N(c3ccc(F)cc3)C3=C2C(=O)OC3)c1OC (centres undefined)	105	109
Cc1ccc(-n2nc(C)c3c(C)cc(=O)n(CC(=O)NC(C)C)c32)cc1	106	101
CCOC(=O)c1cnc2ccc(OCC)cc2c1N1CCN(c2ccccc2F)CC1	105	109
O=C(CSc1nccn1Cc1ccccc1)NCc1ccco1	112	109
Cc1ccc(C)c(NC(=O)N2CCN(C(=O)c3nsc4ccccc34)CC2)c1	107	113
COc1cc(OC)c(NC(=O)Cn2ncn3c(cc4cc(C)ccc43)c2=O)cc1Cl	111	109
Cn1c(=O)c2c(-c3ccccc3Cl)n(-c3cc(Cl)ccc3O)cc2n(C)c1=O	110	107
COc1ccc(CNCc2ccc(C(=O)O)s2)cc1	107	114
COc1ccc(-c2nnc(SCC(=O)Nc3ccccc3C)o2)cc1OC	107	114
COc1cccc(-n2c(=O)c3c4c(sc3n(Cc3ccc(F)cc3Cl)c2=O)CCCC4)c1	111	105
CCOc1ccc(-n2c(SCC(=O)Nc3cc(C)ccc3C)nc3c([nH]c4ccccc43)c2=O)cc1	108	112
COC(=O)c1c(-c2cccs2)csc1NC(=O)c1ccc(Cl)cc1	67*	69*
Cc1ccc(NC(=O)Cn2c(=O)n(-c3ccccc3)c(=O)c3c4c(sc32)CCCC4)cc1	102	107
Cc1cccc(OCCSc2nc3ccccc3n2CC(=O)N2CCCCC2)c1C	106	114
COc1ccc(CNS(=O)(=O)c2ccc(-c3cc(C(F)(F)F)on3)s2)cc1OC	103	96
COCCCn1c(=N)c(C(=O)NC2CCCC2)cc2c(=O)n3cccc(C)c3nc21	108	110
Cc1ccc(NC(=O)CCc2nnc3n(CC(C)C)c(=O)c4ccccc4n23)cc1C	104	111
O=C(Cn1c(=O)c2ccccc2n2nncc12)Nc1cccc(F)c1	104	106
CCN(CC)S(=O)(=O)c1ccc2oc(C(=O)Nc3ccc(Br)cc3F)c(C)c2c1	109	100
CCCCNc1nc(Oc2ccc(=O)[nH]n2)nc(N(C)C)n1	102	106
N#Cc1nc(-c2ccc(COc3ccccc3)o2)oc1NCc1cccnc1	109	115
Cc1ccc(-c2nc(C)c(CCNC(=O)C(=O)Nc3ccc4c(c3)OCO4)s2)cc1	107	108
COc1ccccc1CNC(=O)CCn1c(=O)c2ccccc2n(CC(=O)Nc2cccc(Cl)c2)c1=O	106	108
